Screening data as filed in PubChem BioAssay.
PD-1 reversal: reversal of PD-1 mediated T-cell inhibition. primary human CD4 T cells, PD-L1 beads, CellTiter-Glo 96 h. activation, % (concentration not given with the values). 29,000 tested, under 10 active. AID 2316;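 active = replicate mean of 50% or more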;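 also: 0% = median vehicle wells and 100% = positive control; 100 nL library stock added to about 50 µL; numbers are from one replicate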
Shh pathway inh: Sonic Hedgehog pathway inhibition; Shh-LIGHT2 Gli-luciferase reporter, 30 h; inhibition, % (concentration not given with the values); hit rate 2.1% among 22,000; AID 2313;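 active = replicate mean of 65% or more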;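 also: pathway switched on by Shh-conditioned medium diluted 1 in 25 in low serum; 100 nL library stock added to about 40 µL; 0% = median of neutral wells and 100% = positive control level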
YB-1 expr inh: YB-1 expression inhibition. U2OS, qRT-PCR YB-1 vs CDIP delta delta Cp, 16 h; hits give high values; zero = DMSO, each unit about twofold. delta delta Cp (YB-1 minus CDIP) (no concentration beside the values). hit rate 0.37% among 30,000;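 active = delta delta Cp rounded down to an integer at or above 3, about 3 SD of DMSO wells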;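 also: higher means less YB-1 transcript or more CDIP transcript relative to DMSO; stock transfer was 100 nL into about 100 µL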
MITF inhib: blocks MITF activity. inhibition, % (no concentration beside the values). hit rate 0.28% among 37,000. AID 2240. TRPM1 promoter luciferase, luminescence, 24 h;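 active = most replicates at 85% or more, or half of them and the mean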;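 also: human melanocyte line stably carrying TRPM1 promoter luciferase reporter; 0% = vehicle wells and 100% = a positive control; the first replicate is given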
Active calls of the source: *. Only part of the results is shown; rates above refer to the full screens.

How did CCN(CC(=O)O)S(=O)(=O)c1ccc2ccccc2c1 do in these assays?
PD-1 reversal: 0.2; MITF inhib: 1.3

Results for C[C@H](CO)N1C[C@H](C)[C@@H](CN(C)Cc2ccc(C(=O)O)cc2)Oc2c(cccc2N(C)C)C1=O ?
PD-1 reversal: 4.1; Shh pathway inh: -10.1; YB-1 expr inh: -0.109; MITF inhib: 4.5

What do the screens show for `CCOC(=O)CSc1nc2ccc(I)cc2c(=O)n1-c1ccccc1OC`?
PD-1 reversal: -0.6; MITF inhib: 2.9

Results for CC(C)NC(=O)N(C)C[C@@H]1Oc2c(NC(=O)c3ccc(-c4nccs4)cc3)cccc2C(=O)N([C@H](C)CO)C[C@H]1C ?
PD-1 reversal: -0.1; Shh pathway inh: -24.7; YB-1 expr inh: -0.136; MITF inhib: 5.6

What do the screens show for `C[C@H]1CN([C@@H](C)CO)C(=O)c2cc(NC(=O)C3CC3)ccc2O[C@H]1CN(C)Cc1ccncc1`?
PD-1 reversal: 3.4; YB-1 expr inh: 0.175; MITF inhib: -0.3

How did C[C@H]1CN([C@@H](C)CO)C(=O)c2cc(NS(=O)(=O)c3cn(C)cn3)ccc2O[C@@H]1CN(C)Cc1ccc(Oc2ccccc2)cc1 do in these assays?
PD-1 reversal: -0.4; Shh pathway inh: -6.1; YB-1 expr inh: -0.294; MITF inhib: -4.4

Results for C[C@@H]1CN([C@H](C)CO)C(=O)Cc2cc(NC(=O)Nc3ccc(C(F)(F)F)cc3)ccc2O[C@@H]1CN(C)Cc1ccc(C(F)(F)F)cc1 ?
PD-1 reversal: -3.2; Shh pathway inh: 8.8; YB-1 expr inh: 0.141; MITF inhib: 5.0

How did C[C@H]1CN([C@@H](C)CO)C(=O)Cc2cc(NC(=O)CCCCCC(=O)Nc3ccccc3N)ccc2O[C@@H]1CN(C)S(=O)(=O)c1ccc(Cl)cc1 do in these assays?
PD-1 reversal: 0.5; YB-1 expr inh: -0.245; MITF inhib: -7.6

How did C[C@@H]1CCCCO[C@H](CN(C)C)[C@@H](C)CN([C@H](C)CO)C(=O)c2cc(NS(=O)(=O)c3ccc(Cl)cc3)ccc2O1 do in these assays?
Shh pathway inh: -53.9; YB-1 expr inh: -0.00827; MITF inhib: -2.2

What do the screens show for `O=C(c1cc2ccccc2oc1=O)N(Cc1ccccc1)c1ccccn1`?
PD-1 reversal: 1.3; MITF inhib: -8.3

Results for COc1cc(O)cc2cc3c(c(O)c12)C(=O)C[C@@](C)(O)C3 ?
PD-1 reversal: 0.0; Shh pathway inh: -12.6; YB-1 expr inh: 1.11; MITF inhib: -6.8

Results for C[C@H](CO)N1C[C@H](C)[C@@H](CN(C)Cc2ccc(Oc3ccccc3)cc2)Oc2c(NC(=O)c3ccncc3)cccc2C1=O ?
Shh pathway inh: 4.0; YB-1 expr inh: 0.236; MITF inhib: 3.6

The list goes on, starting with the last four of the part before.
How did C[C@@H]1CCCCO[C@H](CN(C)C)[C@@H](C)CN([C@H](C)CO)C(=O)c2cc(NS(=O)(=O)c3ccc(Cl)cc3)ccc2O1 do in these assays?
Shh pathway inh: -53.9; YB-1 expr inh: -0.00827; MITF inhib: -2.2

What do the screens show for `O=C(c1cc2ccccc2oc1=O)N(Cc1ccccc1)c1ccccn1`?
PD-1 reversal: 1.3; MITF inhib: -8.3

Results for COc1cc(O)cc2cc3c(c(O)c12)C(=O)C[C@@](C)(O)C3 ?
PD-1 reversal: 0.0; Shh pathway inh: -12.6; YB-1 expr inh: 1.11; MITF inhib: -6.8

Results for C[C@H](CO)N1C[C@H](C)[C@@H](CN(C)Cc2ccc(Oc3ccccc3)cc2)Oc2c(NC(=O)c3ccncc3)cccc2C1=O ?
Shh pathway inh: 4.0; YB-1 expr inh: 0.236; MITF inhib: 3.6

How did COc1ccc(S(=O)(=O)Nc2ccc3c(c2)C(=O)N([C@H](C)CO)C[C@H](C)[C@H](CN(C)Cc2ccc(C(F)(F)F)cc2)O3)cc1 do in these assays?
PD-1 reversal: -1.5; YB-1 expr inh: 0.209; MITF inhib: 23.1

How did COc1ccc(N(CC(=O)Nc2ccccc2-c2ccccc2)S(C)(=O)=O)cc1 do in these assays?
PD-1 reversal: 0.1; MITF inhib: -45.1

How did Cc1cc(Cl)ccc1NC(=O)CSc1nc(C(F)(F)F)cc(=O)[nH]1 do in these assays?
PD-1 reversal: 2.5; MITF inhib: 2.2

Results for COc1ccc(-n2ncc(NC(=O)NCc3ccccn3)c2C)cc1 ?
PD-1 reversal: -0.5; YB-1 expr inh: -0.315; MITF inhib: -7.3

How did C[C@@H]1CCCCO[C@@H](CN(C)Cc2ccc(C(F)(F)F)cc2)[C@@H](C)CN([C@H](C)CO)C(=O)c2cc(NS(C)(=O)=O)ccc2O1 do in these assays?
PD-1 reversal: -1.1; Shh pathway inh: -9.8; YB-1 expr inh: 0.171; MITF inhib: -1.5

Results for C[C@@H]1CN([C@H](C)CO)C(=O)c2cc(NC(=O)NC3CCCCC3)ccc2O[C@H]1CN(C)S(=O)(=O)c1cccs1 ?
PD-1 reversal: 4.2; YB-1 expr inh: -0.0957; MITF inhib: -19.3

What do the screens show for `C[C@H](CO)N1C[C@H](C)[C@@H](CN(C)C)Oc2c(NS(=O)(=O)c3cn(C)cn3)cccc2C1=O`?
PD-1 reversal: 1.6; Shh pathway inh: -8.0; YB-1 expr inh: -0.234; MITF inhib: -8.4

Results for CC(C)NC(=O)N(C)C[C@H]1Oc2ccc(NC(=O)CCCCCC(=O)Nc3ccccc3N)cc2CC(=O)N([C@H](C)CO)C[C@H]1C ?
PD-1 reversal: 0.4; YB-1 expr inh: 0.339; MITF inhib: -30.2

What do the screens show for `C[C@H](CO)N1C[C@H](C)[C@H](CN(C)S(C)(=O)=O)Oc2ccc(NC(=O)Nc3ccccc3)cc2C1=O`?
PD-1 reversal: -2.8; Shh pathway inh: -22.1; YB-1 expr inh: 0.118; MITF inhib: -4.1

How did O=C(COc1ccc(S(=O)(=O)NC2CCCCC2)cc1Cl)N1CCOCC1 do in these assays?
PD-1 reversal: -0.2; MITF inhib: 11.9

What do the screens show for `C[C@H](CO)N1C[C@H](C)[C@H](CN(C)Cc2ccncc2)Oc2ccc(NC(=O)Cn3cnnn3)cc2CC1=O`?
PD-1 reversal: 0.5; Shh pathway inh: -27.4; YB-1 expr inh: -0.125; MITF inhib: 2.7

How did C[C@H]1CN([C@@H](C)CO)C(=O)c2cccc(NS(=O)(=O)c3cccs3)c2O[C@@H]1CN(C)S(=O)(=O)c1ccccc1 do in these assays?
PD-1 reversal: 1.6; Shh pathway inh: 10.0; YB-1 expr inh: -0.49; MITF inhib: 3.0

How did CSc1nc(N)nc(SC(C(=O)O)c2ccccc2)c1C#N (stereo unspecified) do in these assays?
PD-1 reversal: 2.0; MITF inhib: -6.1

Results for CCc1ccc(OCC(=O)Nc2ccccc2C#N)cc1 ?
PD-1 reversal: 0.1; MITF inhib: -65.7

How did Cc1noc(C)c1NC(=O)N(C)C[C@H]1Oc2ccc(NC(=O)CCC(F)(F)F)cc2C(=O)N([C@@H](C)CO)C[C@@H]1C do in these assays?
PD-1 reversal: 0.3; Shh pathway inh: -17.9; YB-1 expr inh: 0.419; MITF inhib: -18.8

What do the screens show for `CC(C)NC(=O)Nc1ccc2c(c1)C(=O)N([C@H](C)CO)C[C@H](C)[C@H](CN(C)Cc1ccc(C(F)(F)F)cc1)OCCCC[C@@H](C)O2`?
PD-1 reversal: 1.7; YB-1 expr inh: 0.0991; MITF inhib: 13.7

What do the screens show for `Cc1cccc(C)c1OCC(=O)Nc1ccccc1C#N`?
PD-1 reversal: -0.6; MITF inhib: -16.4

What do the screens show for `C[C@H]1CN([C@@H](C)CO)C(=O)c2cccc(NC(=O)c3nc4ccccc4s3)c2O[C@H]1CN(C)S(C)(=O)=O`?
PD-1 reversal: -0.7; Shh pathway inh: -1.1; YB-1 expr inh: -0.0721; MITF inhib: -4.3

Results for C[C@@H]1CN([C@@H](C)CO)C(=O)c2cccc(NC(=O)c3ccc(-c4nccs4)cc3)c2O[C@@H]1CN(C)Cc1ccc(C(F)(F)F)cc1 ?
PD-1 reversal: -5.9; Shh pathway inh: 62.0; YB-1 expr inh: -0.125; MITF inhib: 37.0

Results for COc1ccc(S(=O)(=O)Nc2ccc3c(c2)C(=O)N([C@H](C)CO)C[C@H](C)[C@@H](CN(C)S(=O)(=O)c2ccc(F)cc2)OCCCC[C@@H](C)O3)cc1 ?
Shh pathway inh: 6.5; YB-1 expr inh: 0.0649; MITF inhib: 1.8

What do the screens show for `C[C@H]1CN([C@@H](C)CO)C(=O)Cc2cc(NC(=O)CCN3CCOCC3)ccc2O[C@@H]1CN(C)Cc1ccc(C(=O)O)cc1`?
PD-1 reversal: 1.0; Shh pathway inh: -1.7; YB-1 expr inh: -0.156; MITF inhib: 0.5

Results for Cc1cccc(NC(=O)CSc2nc(-c3cccs3)cc(C(F)(F)F)c2C#N)c1 ?
PD-1 reversal: -2.6; MITF inhib: 22.0

What do the screens show for `Cc1noc(C)c1NC(=O)N(C)C[C@H]1Oc2ccc(NC(=O)NC3CCCCC3)cc2C(=O)N([C@@H](C)CO)C[C@H]1C`?
PD-1 reversal: 0.6; Shh pathway inh: -22.7; YB-1 expr inh: 0.0698; MITF inhib: 1.2

What do the screens show for `C=C1C[C@@]23CC[C@@H]4[C@](C)(CO)CCC[C@@]4(C)[C@@H]2CC[C@@H]1C3`?
PD-1 reversal: -0.2; Shh pathway inh: -32.6; YB-1 expr inh: 0.127; MITF inhib: -32.7

How did N#CCCSc1nnc(-c2cccnc2)n1Cc1ccccc1 do in these assays?
PD-1 reversal: 0.8; MITF inhib: -7.7

How did CC1CCC2(C)C(C(=O)O)=CCCC2C1(C)CCC1=CC(=O)OC1O (stereo unspecified) do in these assays?
PD-1 reversal: 1.2; Shh pathway inh: 8.9; YB-1 expr inh: -0.128; MITF inhib: 3.2

Results for COc1ccc(S(=O)(=O)Nc2ccc3c(c2)C(=O)N([C@@H](C)CO)C[C@@H](C)[C@@H](CN(C)S(=O)(=O)c2ccc(C)cc2)O3)cc1 ?
PD-1 reversal: 0.0; Shh pathway inh: 19.1; YB-1 expr inh: 0.348; MITF inhib: 4.0

Results for Cc1ccc2c(c1)CCCN2S(=O)(=O)c1cc(OCC(N)=O)c(C)cc1Cl ?
PD-1 reversal: 0.2; MITF inhib: 52.0

Results for COc1ccc(C2C(C(=O)c3ccco3)C(=O)C(=O)N2CCN(C)C)cc1OC (stereo unspecified) ?
PD-1 reversal: 3.3; MITF inhib: -27.0

How did COc1cccc(C(=O)NC(c2ccc(C)cc2)c2cc(Cl)c3cccnc3c2O)c1 (stereo unspecified) do in these assays?
PD-1 reversal: -14.3; MITF inhib: 63.5

Results for CC(C)NC(=O)N(C)C[C@H]1Oc2ccc(NC(=O)Nc3ccccc3)cc2C(=O)N([C@H](C)CO)C[C@@H]1C ?
PD-1 reversal: 1.7; Shh pathway inh: -26.6; YB-1 expr inh: -0.574; MITF inhib: -3.8

How did CC(C)NC(=O)N(C)C[C@@H]1Oc2c(NC(=O)C3CCCCC3)cccc2C(=O)N([C@@H](C)CO)C[C@@H]1C do in these assays?
Shh pathway inh: -11.1; YB-1 expr inh: 0.832; MITF inhib: -3.9

How did CCC(=O)Nc1nc2ccccc2n1CCCN(C)C do in these assays?
PD-1 reversal: 1.0; MITF inhib: 1.7

How did Cc1cc(C)nc(SCC(=O)Nc2cccc(C(=O)O)c2)n1 do in these assays?
PD-1 reversal: -1.3; MITF inhib: -13.6

How did CC(C)NC(=O)N(C)C[C@H]1OCCCC[C@@H](C)Oc2ccc(NS(=O)(=O)c3ccccc3)cc2C(=O)N([C@H](C)CO)C[C@@H]1C do in these assays?
Shh pathway inh: -4.0; YB-1 expr inh: -0.0244; MITF inhib: -10.9

Results for Cc1ccc(S(=O)(=O)N(C)C[C@H]2OCCCC[C@@H](C)Oc3ccc(NS(=O)(=O)c4cccs4)cc3C(=O)N([C@H](C)CO)C[C@@H]2C)cc1 ?
PD-1 reversal: -0.1; YB-1 expr inh: 0.123; MITF inhib: 2.7

What do the screens show for `C[C@@H]1C(=O)O[C@H](C)[C@H]1C[C@@H](O)[C@](C)(O)[C@H]1CC[C@@]2(O)C3=CC(=O)[C@@H]4C[C@@H](O)[C@@H](O)C[C@]4(C)C3CC[C@]12C` (stereo partly specified)?
PD-1 reversal: 0.1; Shh pathway inh: -10.2; YB-1 expr inh: 0.34; MITF inhib: 13.6

Results for O=C(COc1ccccc1)Nc1ccc2oc(-c3ccc(Cl)cc3)nc2c1 ?
PD-1 reversal: 2.5; MITF inhib: -67.8

Results for COC(=O)c1c(NC(=S)NCc2cccnc2)sc(C)c1C ?
PD-1 reversal: -0.8; MITF inhib: -5.3

Results for Cc1c(Br)c([N+](=O)[O-])nn1CC(=O)Nc1ccc(F)cc1 ?
PD-1 reversal: -0.6; MITF inhib: 0.3

Results for C[C@@H]1CCCCO[C@H](CN(C)CC2CCCCC2)[C@@H](C)CN([C@H](C)CO)C(=O)c2cc(NC(=O)Nc3ccc(F)cc3)ccc2O1 ?
PD-1 reversal: -2.6; Shh pathway inh: -19.9; YB-1 expr inh: -0.182; MITF inhib: -10.2

What do the screens show for `C[C@H]1CN([C@@H](C)CO)C(=O)c2cccc(NC(=O)C3CCOCC3)c2O[C@@H]1CN(C)Cc1ccc(-c2ccccc2)cc1`?
PD-1 reversal: 4.5; Shh pathway inh: -1.1; YB-1 expr inh: -0.0893; MITF inhib: -18.5
